Assay outcomes: PubChem, National Center for Advancing Translational Sciences (NCATS)
HPGD block: inhibitors of human 15-hydroxyprostaglandin dehydrogenase (HPGD); P15428; Potency, µM, without a hit: top-dose activity change, negative = inhibition, hits mostly inhibitors; hit rate 4.3% among 150,000; AID 894; purified HPGD, NADH fluorescence kinetic, PGE2 substrate; active = well fitted inhibition curve with a large enough effect (not every such curve was filed as active); inconclusive = small, poorly fitted or top-dose-only effect, or another doubt; inactive = no such curve, though single readings can be large or run the other way;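 also: top concentration of the series not given in the record; plate controls included wells without enzyme; inactives centre near -10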
Target sequence (P15428 whole entry, looked up): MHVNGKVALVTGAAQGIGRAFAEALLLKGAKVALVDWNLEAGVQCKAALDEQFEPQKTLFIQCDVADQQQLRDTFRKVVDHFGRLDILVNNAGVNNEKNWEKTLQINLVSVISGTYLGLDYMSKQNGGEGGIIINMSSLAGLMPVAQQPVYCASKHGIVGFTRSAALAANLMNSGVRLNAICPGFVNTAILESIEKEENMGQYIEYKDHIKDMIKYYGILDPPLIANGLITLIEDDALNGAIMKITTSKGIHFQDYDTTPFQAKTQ
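NADH formation kinetics: reaction with 30 uM PGE2 and 1 mM NAD+ (final), 20 nM enzyme, Tris-HCl pH 8 with Tween 20, after 15 min compound preincubation at room temperature. Fluorescence change, last versus first of five reads.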
Numbers without * were called inactive; ? = inconclusive; & = joins results of further samples. % is scaled to controls: 0 for no effect and ±100 for the full control effect; potency is read from the fitted curve at half-maximal effect. The list is partial; rates above refer to the full screens.

SMILES	HPGD block
CS(=O)(=O)N1N=C(c2ccco2)CC1c1ccccc1 (configuration not stated)	-0.1%
O=C(O)C1C2C=CC3(CN(Cc4ccncc4)C(=O)C13)O2 (configuration not stated)	-14.0%
COc1cccc(OCCNc2cc(N3CCCCC3)ccc2[N+](=O)[O-])c1	-10.7%
O=C(O)c1ccc(Cl)cc1NC(=O)C1CCCO1 (configuration not stated)	-4.0%
Cn1c(N)c(C(=O)COC(=O)C2(c3ccc(Cl)cc3)CCCC2)c(=O)n(C)c1=O	-18.1%
N#C/C(=C\C=C\c1ccccc1[N+](=O)[O-])c1nc(-c2ccc3c(c2)OCO3)cs1	-9.3%
COc1ccc(Cc2nnc(SCC(=O)c3ccccc3)o2)cc1	?
Cc1ccc(S(=O)(=O)NC(CC(C)C)C(=O)Oc2ccc3c4c(c(=O)oc3c2)CCC4)cc1 (configuration not stated)	?
COc1ccc(C(=O)OCCNC(=O)c2c(Cl)nc3ccccn23)cc1	25.1µM*
C=C(C)Cc1c(C)nc(-c2ccccc2)[nH]c1=O	-23.4%

The list goes on:
SMILES	HPGD block
CCc1ccc2c(c1)C1(SC(NC(C)=O)=NN1C(C)=O)C(=O)N2C(C)C (configuration not stated)	-6.0%
O=C(NN1CCOCC1)C12CC3CC(CC(C3)C1)C2	-14.3%
O=C(c1ccc(S(=O)(=O)N2CCCCCC2)cc1)N1CCN(c2ccccn2)CC1	-17.8%
CN1C(=O)C2(Oc3ccccc3C3CC(c4ccccc4)=NN32)c2ccccc21 (configuration not stated)	-11.9%
COc1ccc(OC)c(Nc2nc3nonc3nc2N2CCCC(C)C2)c1 (configuration not stated)	-25.6%
Cc1nc(NNC(=O)c2ccc([N+](=O)[O-])cc2)cc(-c2ccccc2)n1	-18.9%
COc1ccc(NC(=O)C2CC(=O)n3ncnc3N2)cc1 (configuration not stated)	-6.7%
CCOC(=O)c1[nH]c2ccc(OC)cc2c1NS(=O)(=O)c1ccc(Cl)s1	-11.6%
COCCN1Cc2cccc(C(=O)Nc3cccc(C)c3C)c2C1=O	0.9%
CC(c1ccco1)N(C(=O)COc1ccccc1[N+](=O)[O-])c1ccccn1 (configuration not stated)	1.7%

Next records.
SMILES	HPGD block
Cc1csc2nc(CNC(=O)c3cccc(C(F)(F)F)c3)cn12	-12.7%
CCN(c1ccccc1)c1cc(C)nc2ncnn12	-14.7%
c1cn(CCCNc2ncnc3sc4c(c23)CCC4)cn1	-25.1%
CCOc1ccc(C2CC(=O)NC(SCC(=O)OC)=C2C#N)cc1 (configuration not stated)	-17.5%
CCC(=O)N(Cc1cc2cc(OC)ccc2[nH]c1=O)c1ccccc1C	?
CCCCC1=CC2=CC(=O)C(C)(OC(=O)CCc3ccccc3)C(=O)C2=CO1 (configuration not stated)	-10.8%
Cc1ccc(S(=O)(=O)N2CCC(=O)N(C(COCc3cccc(Cl)c3)C(C)C)CC2)cc1 (configuration not stated)	-5.4%
CC1=C(C(=O)Nc2cc(C)ccc2C)C(c2cccs2)NC(=S)N1 (configuration not stated)	-1.1%
CCOC(=O)C(C(=O)OCC)C(Nc1cccc(Br)c1)c1ccccc1 (configuration not stated)	-12.4%
c1ccc(-c2ccccn2)nc1	-10.8%&-0.4%

Further records.
SMILES	HPGD block
CCOc1nc2ccccc2nc1C	-11.1%
COC(=O)[C@H]1C(OC)[C@@H](OC(=O)c2cc(OC)c(OC)c(OC)c2)C[C@@H]2CN3CCc4c([nH]c5cc(OC)ccc45)[C@H]3C[C@H]21 (some centres not stated)	?
O=C(CCl)Nc1cccc2ncccc12	-4.6%
Cc1nnc(NC(=O)COc2ccccc2)s1	6.4%
CCOC(=O)c1ccc(NC(=O)C2CC2)cc1	-4.2%
CCOc1cc(/C=N/O)ccc1OCc1ccccc1F	-1.6%
Cc1ccc(S(=O)(=O)NCCc2nnc3ccc(SCC(=O)Nc4nc(C)cs4)nn23)cc1	-1.8%
CCn1nnnc1SCC(=O)c1cc(OC)ccc1OC	-21.8%
CC(C)NC(=O)C1CCN(C(=O)c2cc3sccc3n2Cc2ccc(F)cc2)CC1	-0.1%
COc1cccc(Cn2c(=O)c(C)nc3cnc(N4CCNCC4)nc32)c1	-16.9%

(list continues)
SMILES	HPGD block
CC(C)(C)c1nnc2sc(SCC(=O)c3ccccc3)nn2c1=O	-22.1%
O=C(NC1CCCCC1)C(c1ccc(F)cc1)N(Cc1ccc2c(c1)OCO2)C(=O)c1cnsn1 (configuration not stated)	-4.3%
COC(=O)c1cc(Br)c(=O)n(-c2ccc(F)cc2)c1	-0.3%
Cc1ccc(S(=O)(=O)Nc2ccc3c(c2)ncn3C(C)(C)C)cc1	-10.7%
CC1=CC(=O)C=CC1(C)C(Cl)(Cl)Cl (configuration not stated)	-5.9%
O=C1NCC(COCc2ccccc2)O1 (configuration not stated)	-3.8%
CC(=O)c1ccc(N2CCN(C(=O)C3(S(=O)(=O)c4ccc(Cl)cc4)CC3)CC2)cc1	?
COC(=O)c1ccc(OCCOc2ccccc2)cc1	-18.1%
CCc1ccccc1NC(=S)NCc1cccn1C	-10.4%
CCOC(=O)c1[nH]c2ccccc2c1NC(=O)c1ccc(S(=O)(=O)N2CCCC2)cc1	-18.1%

Other compounds
SMILES	HPGD block
COCCn1c(C)cc(C(=O)CSc2n[nH]c(N)n2)c1C	-14.3%
Cn1c(=O)c2c(n(Cc3ccccc3)c1=O)NC(=O)C2CC(=O)NCc1cccc(Cl)c1 (configuration not stated)	-3.7%
CCOc1ccc2nc(SCc3ccc(F)cc3)sc2c1	1.7%
N#Cc1ccc(CN2CCCC3(CCN(C(=O)c4cc(C(F)(F)F)cc(C(F)(F)F)c4)CC3)C2)cc1	-11.7%
O=C(Nc1ccccc1Cl)NC1(C(=O)N2CCCCC2)CCCCC1	-9.8%
O=C(NNS(=O)(=O)c1ccc(Br)cc1)c1ccncc1	-5.3%
O=C(CSc1nc2ccccc2c(=O)n1-c1ccc(F)cc1)Nc1ccc(N2CCOCC2)cc1	-1.1%
CCCNc1cc(C)c(C#N)c2nc3ccccc3n12	?
CCN(CC)CCCC1(CN)OCCc2ccccc21 (configuration not stated)	1.9%
COC(=O)[C@@]1(Cc2ccccc2)[C@H]2c3cc(C(=O)N(C)C)n(Cc4cc(F)c(F)c(F)c4)c3C[C@H]2CN1C(=O)c1ccccc1	-12.1%

Going on with the list:
SMILES	HPGD block
Cc1cc2ncn(-c3ncnc4sc5c(c34)CCCC5)c2cc1C	-7.1%
CCOC(=O)c1c(N2C(=O)Nc3ccccc3N2O)sc2c1CCCCC2	-9.7%
CC(C(=O)Nc1ncn[nH]1)N1C(=O)c2ccccc2C1=O (configuration not stated)	-10.9%
C/C(=N\OC(=O)NC(C)C)c1sc(-c2ccc(Cl)cc2)nc1C	-25.8%
Cc1ccc(C(=O)COc2ccccc2N2C(=O)c3ccccc3C2=O)cc1	-6.8%
C=CCOc1cccc(/C=N/NC(=O)C(=O)NCc2ccco2)c1	-6.4%
COc1cc(C2/C(=C(\O)c3ccc4c(c3)CC(C)O4)C(=O)C(=O)N2Cc2ccco2)ccc1O (configuration not stated)	-13.8%
COn1c(SCC(=O)N(C)C)nc2ccccc2c1=O	-16.4%
Cc1ccc(S(=O)(=O)N/N=c2\sc3ccccc3n2C)cc1	-4.4%
NCC(=O)[C@@H](O)[C@H](O)[C@H](O)CO	-3.3%

Further records follow:
SMILES	HPGD block
O=c1cc(-c2ccccc2)nc2nc(CCc3ccccc3)[nH]n12	-8.8%
CCN(CCNS(=O)(=O)c1ccc2c(c1)oc(=O)n2C)c1ccccc1	-8.0%
Clc1ccc(-c2ccc(C=Nc3ccc(N4CCOCC4)cc3)o2)cc1	-7.8%
Cc1occc1C(=O)NN1C(=O)C2C3CCC(O3)C2C1=O (configuration not stated)	-5.1%
O=C(Nc1ccc(O)c(-c2nc3ccccc3s2)c1)c1cccs1	-12.1%
N#C/C(=C\c1cn[nH]c1-c1ccccc1)C(=O)NC1CCCCCC1	-19.7%
CC(=O)c1sc2nc(-c3ccc(C)cc3)c3c(c2c1N)CCCC3	?
O=C(c1c(F)cccc1F)N(Cc1ccccn1)C1CC1	-5.6%
Cc1cc(N(C)C)cc(C)[n+]1[O-]	-7.1%
CC(=O)Nc1cc(NC(=O)CCCC(=O)O)ccc1Cl	-5.9%

More records follow:
SMILES	HPGD block
COc1ccc(S(=O)(=O)N2CCOCC2)cc1N=Nc1sc(N)nc1-c1ccccc1	-2.3%
CC(NC(=O)c1ccco1)C(=O)OCc1cccc(Cl)c1 (configuration not stated)	?
CNC(=O)c1cc(S(=O)(=O)N(C)C)ccc1Cl	-21.0%
Cc1ccc2c(c1)N1C(=O)c3ccccc3C1C1=C(CC(C)(C)CC1=O)N2 (configuration not stated)	-13.7%
NCCSc1nc(-c2ccccc2)c(-c2ccccc2)o1	-9.6%
O=C(O)C1CCCCC1C(=O)NCCc1c[nH]c2ccccc12 (configuration not stated)	-6.5%
CC(C)CCOc1cccc(OCC(=O)N(C)C2CCS(=O)(=O)C2)c1 (configuration not stated)	-5.2%
COc1ccc(-n2c(C)nc3cc(C(=O)O)ccc32)cc1	-13.7%
COc1cc(/C=C2/SC(=O)N(Cc3ccccc3Cl)C2=O)ccc1OCc1ccncc1	1.4%
CC1(C)C(c2ccccn2)=[N+]([O-])C(C)(C)N1O	-0.3%

The list goes on.
SMILES	HPGD block
C=CCN1C(c2cccc(C(F)(F)F)c2)=CS/C1=C(/C#N)c1nnc(N2CCOCC2)n1-c1ccccc1	-9.0%
CCn1c2ccccc2c2cc(/C=N/NC(=O)c3ccccc3)ccc21	?
Cc1cccc2sc(NNC(=O)c3ccc(S(=O)(=O)N4CCCC(C)C4)cc3)nc12 (configuration not stated)	-21.9%
O=C(CCN1CCCCC1c1cccnc1)NCc1ccccc1 (configuration not stated)	6.7%
Cc1cc(C)cc(-c2cc3c(c(-c4c(O)c(-c5cc(C)cc(C)c5)cc5c4CCCC5)c2O)CCCC3)c1	-3.9%
Cc1n[nH]c(C)c1C(=O)CC1(O)C(=O)N(CCc2ccccc2)c2ccc(Br)cc21 (configuration not stated)	-11.3%
Cc1ccc(-n2ncc3c(NCCCOC(C)C)ncnc32)c(C)c1	-28.6%
CCn1cc(C(=O)NCc2ccco2)c(=O)c2cc(S(=O)(=O)N3CCc4ccccc4C3)ccc21	-29.9%
CC(=O)Nc1ccc2nc(C3CCCCC3)[nH]c2c1	-3.2%
COc1ccc(-c2n[nH]c(=S)n2/N=C/C=C\c2ccccc2OC)cc1	0.891µM*

Seven entries from above, sorted by length of the SMILES, low to high:
SMILES	HPGD block
CC(=O)Nc1ccc2nc(C3CCCCC3)[nH]c2c1	-3.2%
Cc1ccc(-n2ncc3c(NCCCOC(C)C)ncnc32)c(C)c1	-28.6%
CCn1c2ccccc2c2cc(/C=N/NC(=O)c3ccccc3)ccc21	?
COc1ccc(-c2n[nH]c(=S)n2/N=C/C=C\c2ccccc2OC)cc1	0.891µM*
Cc1n[nH]c(C)c1C(=O)CC1(O)C(=O)N(CCc2ccccc2)c2ccc(Br)cc21 (configuration not stated)	-11.3%
CCn1cc(C(=O)NCc2ccco2)c(=O)c2cc(S(=O)(=O)N3CCc4ccccc4C3)ccc21	-29.9%
C=CCN1C(c2cccc(C(F)(F)F)c2)=CS/C1=C(/C#N)c1nnc(N2CCOCC2)n1-c1ccccc1	-9.0%

(listing goes on)
SMILES	HPGD block
COc1ccc2nc(N3CCCC(C(=O)NCCCN4CCN(C)CC4)C3)sc2c1 (configuration not stated)	-1.0%
O=C(Oc1ccccc1)c1ccc(-n2cnnn2)cc1	-8.4%
Cc1cc(NC(=O)CCC(=O)N(CCC(C)C)CC(=O)NCC2CCCO2)no1 (configuration not stated)	0.1%
CCOc1ccccc1-c1n[nH]c(=S)o1	-13.6%
Cc1ccc2c(c1C)OC(=O)CC2(C)C	?
Cc1nn(CC(=O)NCCc2ccc(Cl)cc2)c(C)c1[N+](=O)[O-]	-12.3%
CCCc1cc(=O)[nH]c(SCC(=O)Nc2cc3c(cc2C(C)=O)OCO3)n1	-11.2%
O=C(CSc1nnc(SCc2ccccc2)s1)NNC(=S)Nc1ccccc1	10µM*
CCCCCNC(=O)C(C#N)c1nc2ccccc2nc1N1CCCC1 (configuration not stated)	-8.6%
Cc1cccc(O)c1	-5.0%

Later entries.
SMILES	HPGD block
CCCCNC(=O)CSc1nc2cc(OC)c(OC)cc2c(=O)n1Cc1ccc(OC)cc1	-12.5%
COc1ccc(-c2oc(NC(=O)c3ccc(C)cc3)c(C#N)c2-c2ccc(OC)cc2)cc1	-23.6%
O=C(Cn1c(NCCO)nc2ccccc21)c1cccs1	-18.6%
Clc1ccc(-c2nc(Cc3ccccc3)no2)cc1	-11.6%
O=C(CSc1nc(C2CC2)nc2sc3c(c12)CCCC3)NCc1ccco1	-9.3%
Nc1c(C(=O)NCCN2CCOCC2)c2nc3ccccc3nc2n1-c1ccccc1	?
O=S(=O)(NCCc1ccccc1)c1ccc(S(=O)(=O)N2CCCCC2)cc1	-5.4%
O=C(O)c1ccc(C(=O)O)c(C(=O)O)c1.[NH-][C@@H]1CCCC[C@@H]1[NH-].[Pt]	-7.1%

2 entries from above, as labelled records:
> O=C(O)c1ccc(C(=O)O)c(C(=O)O)c1.[NH-][C@@H]1CCCC[C@@H]1[NH-].[Pt]
  HPGD block = -7.1%
> CCCCNC(=O)CSc1nc2cc(OC)c(OC)cc2c(=O)n1Cc1ccc(OC)cc1
  HPGD block = -12.5%
